OX1R antag: antagonists of human orexin 1 receptor | O43613 | CHO/OX1R cells, Fluo-8 calcium fluorescence, orexin A | inhibition, % at 5 µM | hit rate 0.43% among 330,000;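 active = inhibition above its plate's threshold, mean inhibition of all tested compounds on the plate plus 3 SD, cut at about 37% in these data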;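 also: 0% = orexin A challenge wells and 100% = SB-334867-A antagonist wells; not every result past the cut was called active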
Target sequence (O43613 whole entry, looked up): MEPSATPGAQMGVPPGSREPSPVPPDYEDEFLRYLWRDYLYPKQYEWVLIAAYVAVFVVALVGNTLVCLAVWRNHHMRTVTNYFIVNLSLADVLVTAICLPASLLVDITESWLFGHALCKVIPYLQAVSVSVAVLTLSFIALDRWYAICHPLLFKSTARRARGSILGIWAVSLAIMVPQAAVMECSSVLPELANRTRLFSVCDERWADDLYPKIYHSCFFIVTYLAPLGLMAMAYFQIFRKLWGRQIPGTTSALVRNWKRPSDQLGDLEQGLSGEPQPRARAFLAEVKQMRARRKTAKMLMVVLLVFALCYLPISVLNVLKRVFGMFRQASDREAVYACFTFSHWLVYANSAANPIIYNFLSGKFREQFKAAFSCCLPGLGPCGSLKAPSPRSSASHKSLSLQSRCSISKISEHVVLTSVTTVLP
* hit, by the source's call.

Start of the listing, in advance, five compounds:
SMILES	OX1R antag
C/C(Cl)=C/Cn1c(SCC(C)C)nc2c1c(=O)[nH]c(=O)n2C	-25
CCOc1ccc(C(=O)CCC(=O)NC2=NCCS2)cc1	-41
Cc1nnc(C)n1/N=C/c1cccn1C	0
COc1ccccc1N1CCN(C2CCC(C)CC2)CC1 (configuration not stated)	-11
Cc1cc(OC(=O)c2cc(Br)ccc2Cl)c([N+](=O)[O-])c(=O)[nH]1	6

The listing (from the top)
SMILES	OX1R antag
C/C(Cl)=C/Cn1c(SCC(C)C)nc2c1c(=O)[nH]c(=O)n2C	-25
CCOc1ccc(C(=O)CCC(=O)NC2=NCCS2)cc1	-41
Cc1nnc(C)n1/N=C/c1cccn1C	0
COc1ccccc1N1CCN(C2CCC(C)CC2)CC1 (configuration not stated)	-11
Cc1cc(OC(=O)c2cc(Br)ccc2Cl)c([N+](=O)[O-])c(=O)[nH]1	6
CN(C(=O)COC(=O)CNC(=O)c1ccccc1Cl)c1ccccc1	-2
CC(C)c1nnc(NC(=O)CCC(=O)NC2CCCCCC2)s1	-9
COc1cc(C2C3=C(CC(C)(C)CC3=O)Nc3c2c(=O)[nH]c(=O)n3Cc2ccccc2)ccc1O (configuration not stated)	-20
CCOC(=O)C(CCCOc1ccc(C(C)CC)cc1)C(=O)OCC (configuration not stated)	-19
O=C(CCn1nc(-c2ccc(Cl)cc2)c2ccccc2c1=O)NN1CCOCC1	-18
O=S(=O)(CCN1C=CC(C(F)(F)F)=NCC1)c1ccc(F)cc1	-16
CCOC(=O)CCCNC(=O)CCNC(=O)c1ccc(OC)cc1	-13
O=C1CCC(=O)N1CN(C(=O)c1ccco1)c1ccccc1	-10
CCOC(=O)N1CCC(C(N)=O)CC1	-2
CN(C)CCNC(=O)C(=O)Nc1ccc2c(c1)N(S(=O)(=O)c1cccs1)CCC2	-8
O=C(CNC(c1ccccc1)c1ccccc1)Nc1ccccc1F	-30
Cc1nc2c(sc3nc4c(cc32)COC(C)(C)C4)c(=O)o1	-3
Cc1cc(C)cc(OCC(=O)Nc2ccc(CN3CCCCC3)cc2)c1	-23
Cc1cc2c(cc1S(=O)(=O)Nc1ccc(F)cc1)n(C)c(=O)c(=O)n2C	-22
COc1ccc(/C=N/OCc2nc3c4c(ncn3n2)Oc2ccc3ccccc3c2C4c2ccccc2)cc1 (configuration not stated)	-11
COCC(=O)N(C)CC1CCCN(CCc2ccccc2OC)C1 (configuration not stated)	-15
CCN(C(=O)CN(C)Cc1cccc(Cl)c1Cl)c1c(N)n(Cc2ccccc2)c(=O)[nH]c1=O	-16
CCOC(=O)c1c(NC(=O)COc2ccccc2F)sc2c1CC(C)(C)NC2(C)C	-37
CCc1nc(SCC(=O)Nc2ccccc2C(=O)OC)n[nH]1	-10
CC(Oc1ccccc1)C(=O)Nc1cccc(-c2nc3ccccc3[nH]2)c1 (configuration not stated)	1
COc1ccc(NC(=S)Nc2cc(C)[nH]n2)cc1Cl	-3
Cc1ccnc(NC(=O)C2CCN(S(=O)(=O)c3ccc4c(c3)CC(C)N4C(=O)C3CCC3)CC2)c1 (configuration not stated)	-23
CCc1nnc(SCc2ccc(OC(C)C)cc2)n1N	-9
CCSc1nnc(N)s1	1
CCOc1ccc(C(=O)NC(Cc2ccccc2)C(=O)OC)cc1 (configuration not stated)	-13
O=C(Nc1ccc(N2CCN(C(=O)c3cccs3)CC2)cc1)c1cccnc1Cl	1
CC1=C(C(=O)N2CCCC(N3CCN(c4cccc(C(F)(F)F)c4)CC3)C2)OCCO1 (configuration not stated)	-8
O=C(O)CNC(=O)CCCn1nnc2ccccc2c1=O	-7
CC(=O)CSc1nc(N(C)C)nc(N(C)C)n1	-17
CC1CCc2c(sc(NC(=O)C(=O)NCc3ccco3)c2C#N)C1 (configuration not stated)	-27
CC(C)(C)c1ccc(Oc2ccc(NC(=O)CCCC(=O)O)cn2)cc1	-8
O=S1(=O)CC(O)C(N(CCO)C(=S)Nc2ccccc2)C1 (configuration not stated)	0
COC(c1ccccc1)(c1ccccc1)C(Oc1nccc(C)n1)C(=O)O (configuration not stated)	1
CC(=O)Nc1ccc(S(=O)(=O)N2CCC(C(N)=O)(N3CCCCC3)CC2)cc1	-8
COc1ccc(N2CC(C(=O)OCC(=O)c3ccc(C)cc3)CC2=O)cc1 (configuration not stated)	-14
COc1ccc(-c2cc(=O)oc3cc(O)ccc23)cc1	6
Cc1ccc(C)n1-c1ccc(C(=O)O)cc1	-12
CC(=O)c1ccc(NC(=O)Cc2cccs2)cc1	-8
Cc1nc(SCC(=O)CC(=O)OC(C)C)c(C#N)c(C)c1C	-21
CCCCN(Cc1ccc(C(=O)N[C@H](C(=O)O)C(C)C)cc1)C(=O)C(c1ccccc1)c1ccccc1	-13
COc1ccccc1C(C)NC(=O)Cc1ccsc1 (configuration not stated)	-28
COc1ccccc1Nc1nc(NCC2CCCO2)c2ccccc2n1 (configuration not stated)	-38
COC(=O)C1=CN(C(C)c2ccccc2)C=C(C(=O)OC)C1c1cc(OC)c(OC)c(OC)c1 (configuration not stated)	-23
O=C(Nc1nnc(-c2ccncc2)s1)Nc1ccccc1F	-19
COc1ccc(N(C(C)C(=O)NC2CCCCCC2)S(C)(=O)=O)cc1 (configuration not stated)	-17
O=c1cc(-c2ccccc2)nc(SCCOc2ccccc2Cl)[nH]1	-10
Cc1ccccc1NC(=O)C(=O)NCCc1c[nH]c2ccccc12	-13
Cn1nc(-c2ccccc2)c(CO)c1Oc1ccc(F)cc1	-7
Nc1cc(N)nc(SCc2cccc(F)c2)n1	-10
Cc1ccc(S(=O)(=O)Nc2cc(C(=O)NCCN(C)C)ccc2N2CCCC2)cc1	-9
CCOc1ccc(CCNC(=O)c2ccc(C)c(N3CCCC3=O)c2)cc1OCC	-11
CCOC(=O)c1ccccc1NC(=O)C1CCCO1 (configuration not stated)	-10
CC(=O)c1ccc(NC(=S)NC(=O)/C=C/c2ccccc2)cc1	-27
Cc1cccc2nc3ccccc3nc12	-17
CC(C)c1ccc(N(CC(=O)NCCSCc2ccco2)S(C)(=O)=O)cc1	-33

Remaining list, next part
SMILES	OX1R antag
Cc1cccc(NC(=O)C2Cc3ccccc3CN2C(=O)OCc2ccccc2)c1C (configuration not stated)	-29
Cc1ccccc1N=C1c2ccccc2C(=O)C1[N+](=O)[O-] (configuration not stated)	-9
COc1ccccc1CCN=C(N)NS(=O)(=O)c1ccc(F)cc1	4
CC(C)CCN(C(=O)CNC(=O)c1ccco1)C(C(=O)NC1CCCCC1)c1cccnc1 (configuration not stated)	-51
COc1ccc(C2C(C(=O)NCc3ccco3)CCC(=O)N2c2ccc(OC)cc2)cc1 (configuration not stated)	-9
CS/C(=N\S(=O)(=O)c1cccs1)Nc1ccc(N2CCOCC2)cc1	-24
O=C(c1cccs1)N1CCN(Cc2cccc([N+](=O)[O-])c2)CC1	-8
O=[N+]([O-])c1ccc(N2CCN(c3ccc(Cl)nn3)CC2)c(Cl)c1	-12
O=C(Cc1ncc(C(F)(F)F)cc1Cl)Nc1cccc(Br)c1	-19
COc1ccc(NC(=O)Cn2c(NCC(C)O)nc3ccccc32)cc1Cl (configuration not stated)	-9
c1ccc(N2CCN(CCc3nnc4n3CCCCC4)CC2)cc1	-15
CCOc1ccc(Cl)cc1S(=O)(=O)NC1CCCC1	-14

Some of these compounds in order of their number in OX1R antag, ascending:
molecule,OX1R antag
Cc1cccc(NC(=O)C2Cc3ccccc3CN2C(=O)OCc2ccccc2)c1C (configuration not stated),-29
CS/C(=N\S(=O)(=O)c1cccs1)Nc1ccc(N2CCOCC2)cc1,-24
O=C(Cc1ncc(C(F)(F)F)cc1Cl)Nc1cccc(Br)c1,-19
O=[N+]([O-])c1ccc(N2CCN(c3ccc(Cl)nn3)CC2)c(Cl)c1,-12
COc1ccc(C2C(C(=O)NCc3ccco3)CCC(=O)N2c2ccc(OC)cc2)cc1 (configuration not stated),-9

(continued)
SMILES	OX1R antag
CCN(CC)CCNc1c2c(c(C#N)c3nc4ccccc4n13)CCCC2	-18
O=C(O)Cc1cn(Cc2ccc(F)cc2)c2ccccc12	4
CCOc1ccccc1N1CC(C(=O)N(C)Cc2cccnc2)CC1=O (configuration not stated)	-19
CC(=O)Nc1ccc(OCC(=O)NCCc2ccccc2)cc1	-4
CC(C)Cc1nnc(NC(=O)CSc2nc(-c3ccccc3)cc(=O)[nH]2)s1	-23
O=C1CC(=O)N(CCc2ccc(F)cc2)C(=O)N1	-10
COc1ccc(C(=O)n2nc(C)c(Br)c2C)cc1	-11
COc1cccc(/C=C/C(=O)OCC(=O)Nc2ccc(Cl)cn2)c1	-10
Nc1cc(C(=O)c2cccs2)ccc1Cl	-8
COc1ccc(NC(C)=O)cc1S(=O)(=O)N1CCN(C/C=C/c2ccccc2)CC1	-24
Cc1cc([N+](=O)[O-])nn1CCC(=O)NC1CCCCCC1	-16
COC(=O)C1=NNCC12CC(=O)N(c1ccc(Br)cc1)C2=O (configuration not stated)	-5

7 of the compounds above, with the structure last:
| OX1R antag | SMILES |
| --- | --- |
| 1 | O=C(Nc1ccc(N2CCN(C(=O)c3cccs3)CC2)cc1)c1cccnc1Cl |
| -8 | CC1=C(C(=O)N2CCCC(N3CCN(c4cccc(C(F)(F)F)c4)CC3)C2)OCCO1 (configuration not stated) |
| -7 | O=C(O)CNC(=O)CCCn1nnc2ccccc2c1=O |
| -17 | CC(=O)CSc1nc(N(C)C)nc(N(C)C)n1 |
| -27 | CC1CCc2c(sc(NC(=O)C(=O)NCc3ccco3)c2C#N)C1 (configuration not stated) |
| -8 | CC(C)(C)c1ccc(Oc2ccc(NC(=O)CCCC(=O)O)cn2)cc1 |
| 0 | O=S1(=O)CC(O)C(N(CCO)C(=S)Nc2ccccc2)C1 (configuration not stated) |

Following part.
SMILES	OX1R antag
Cc1nnc(NC(=O)C2(c3ccccc3)CCOCC2)s1	1
CSCC[C@H](NC(=O)OC(C)(C)C)C(=O)N1CCC(C(=O)N[C@@H](C)C(=O)O)CC1	10
O=C(CC1CCC1)NC(c1ccccc1)c1ccccc1	-33
COc1ccc(OC)c(/C=C2\N=C(c3ccccc3)OC2=O)c1	1
COc1ccc(C(=O)Nc2cccc(-c3ccc4nncn4n3)c2)cc1OC	-5
CCC(C)N(C(=O)COC(=O)/C=C/c1ccc(O)c(OC)c1)C1CCS(=O)(=O)C1 (configuration not stated)	-5
Nc1c(-c2ccc(F)cc2)cnc2ncnn12	0
O=c1[nH]c(SCc2nc3ccccc3c(=O)n2-c2ccccc2C(F)(F)F)nc2ccccc12	-25
CS(=O)(=O)N1N=C(c2cccs2)CC1c1ccc(Cl)o1 (configuration not stated)	-12
COc1cccc(-c2nnc(SCc3ccc(C#N)cc3)n2Cc2ccco2)c1	-8
O=C(N/N=C/c1cnc(N2CCOCC2)s1)c1ccccc1	-12
Cc1cccc(NC(=O)CCn2c(=O)oc3ccccc32)c1	1
O=C(CCS(=O)(=O)c1ccccc1)Nc1nc2c(s1)COc1ccccc1-2	-9
O=C(CCC(=O)N1CCN(c2ccc(O)cc2)CC1)c1cccs1	-13
CC1CCN(C(=O)c2ccc(N3C(=O)c4ccccc4C3=O)cc2)CC1	-9
COc1ccc(CCNC(=O)Nc2ccc([N+](=O)[O-])cc2)cc1OC	-6
Cc1cccc(NC(=O)COc2ccc(-c3nn(C)c(=O)c4ccccc34)cc2)c1	-17
COCc1nc2ccccc2n1CCCOc1ccccc1	-23
Cc1ccc(C)c2c1cc(C)c1nnc(SCc3ccccn3)n12	-3
Cc1ccc(/C=C(\NC(=O)c2ccccc2)C(=O)NCCN2CCOCC2)o1	-9
Cc1ccc(C)c(COC(=O)c2cc([N+](=O)[O-])ccc2N2CCOCC2)c1	-30
COc1ccc(Cl)cc1S(=O)(=O)n1ccnc1C(C)C	-33
OCCC1CN(Cc2cnn(-c3ccc(F)cc3)c2)CCN1Cc1ccsc1 (configuration not stated)	-8
CCOCCCNC(=S)N1CCC(NC(=O)c2ccco2)CC1	-19
CCc1ccc(-c2csc(NC(=O)c3cccnc3)n2)cc1	-12
CC(=O)c1cc(NC(=O)c2ccccc2)c(=O)oc1C	-11
Cc1ccc(SCC(=O)Nc2cccc(NC(=O)c3ccco3)c2)cc1	-17
CCN(C(=O)c1cccs1)c1nc(-c2ccc(OC)cc2)cs1	-55
CCC12CN3CCN(CC(C3)/C1=N\NC(=O)c1ccc(F)cc1)C2	-8
O=C(N1CCOCC1)N1CCN(c2ccc(F)cc2)CC1	-5
CCN1CCN(CC(=O)Nc2cc(C(F)(F)F)ccc2OCCOC)CC1	-27
N#Cc1nc(COc2ccccc2)oc1N1CCC(Cc2ccccc2)CC1	2
CCC1CCCCN1CCCNC(=O)C1CCCN(S(=O)(=O)N2CC(C)CC(C)C2)C1 (configuration not stated)	-31
CN(Cc1ccco1)S(=O)(=O)c1ccc2c(c1)CCN2C(=O)CCC(=O)O	5
CC(=O)Nc1ccc(NC(=O)C2CCN(C(=O)C3CC(=O)N(c4ccc(C)cc4)C3)CC2)cc1 (configuration not stated)	-3
O=S(=O)(c1ccc(Cl)cc1)c1cnc2ccccc2n1	-1
Cc1cc(C)cc(OCc2ccc(C(=O)NC3CCOC3=O)o2)c1 (configuration not stated)	-17
O=C(NCCNc1ccc([N+](=O)[O-])cc1C(F)(F)F)c1ccc(F)cc1	-26
COc1ccccc1CNc1nc2nc(C)cc(=O)n2[nH]1	6
N/C(=N\OC(=O)CCn1cccc(C(F)(F)F)c1=O)c1ccc(Cl)cc1	-7
CC(OC(=O)c1cccnc1)C(=O)NCc1ccc2c(c1)OCO2 (configuration not stated)	-1
Cc1cc2cc(C)c3nnc(SCC(=O)Nc4ccc(S(=O)(=O)N5CCCCC5C)cc4)n3c2cc1C (configuration not stated)	-12
CCOC(=O)c1cnc(SC)nc1Oc1cccc(NC(=O)c2cccc(Cl)c2Cl)c1	-21
Cc1cc(OCC(=O)NC(C)C)cc(C)c1Cl	-27
CCCCn1c(N)c(N(CC(C)C)C(=O)CCCSc2nncs2)c(=O)[nH]c1=O	-5
COc1ccccc1C(=O)Nc1ccnn1C1CCN(C(=O)C(C)(C)C)CC1	-5
CCCCNC(=O)CCn1nc(-c2ccc(Cl)cc2)c2ccccc2c1=O	-27
CNS(=O)(=O)c1cccc(C(=O)NCC(c2cccs2)N(C)C)c1 (configuration not stated)	-6
Nc1cc(S(=O)(=O)Nc2ccc(Br)cc2)ccc1Cl	-20
Cn1cc(CC(=O)NCCCN2CCCC2=O)c2ccccc21	-17
O=C(CC(Nc1cccc(Cl)c1Cl)C(=O)O)c1ccccc1 (configuration not stated)	9

Source: PubChem BioAssay (The Scripps Research Institute Molecular Screening Center)

These rows are one share of the data, and most or all hits are left out here.
